# Bioassay records deposited in PubChem BioAssay by ICCB-Longwood Screening Facility, Harvard Medical School.
# Bm FixLJ act: activators of Burkholderia fixLJ two-component system, primary screen, B. multivorans, GFP reporter | B. multivorans fixK-promoter GFP reporter, 18 h; stronger effect = higher value | z-score (no concentration beside the values) | 29,000 compounds, 0.3% hits | AID 1918990, 2023;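 active = replicate mean overnight rise in green fluorescent reporter signal, 3 or more SD over negative controls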;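 note: score is relative to vehicle wells of the plate; 300 nL library stock went into each well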
# Numbers without * were called inactive. An excerpt (hit frequency here may not be typical).
Compound	Bm FixLJ act
COc1cccc2c1OCC(C(=O)NCCNc1ncccc1C)C2 (stereo not given)	0.4
CCOc1cccc(C(=O)N(C)C2C[C@@H]3CNC(=O)C[C@H]3C2)c1 (stereo not given in full)	-0.32
CCN(CCCNC(=O)c1nn(-c2ccc(OC)c(Cl)c2)c(=O)c2c1c1ccccc1n2C)c1ccccc1	-1.09
COc1ccc(CNC(=O)CCCN2C(=O)COc3ccc(C)cc32)cc1	0.88
Cc1cc(-c2ccccc2)nc2cc(C(=O)Nc3cc(C(F)(F)F)ccc3Cl)nn12	0.39
CCN(C(=O)CSc1nc(-c2ccccc2)no1)c1cccc(C)c1	-0.38
Nc1c(-c2nc(-c3ccc(F)cc3)cs2)c2ccccn2c1C(=O)c1ccc2c(c1)OCO2	-1.4
COc1cc(Cl)c(C)cc1NC(=O)Cn1cc(S(=O)(=O)N2CCN(c3ccccc3F)CC2)c2ccccc2c1=O	-0.12
O=C(c1ccc(N2CCC(O)CC2)nc1)N1CCC(CCc2ccccc2)CC1	-1.32
CCN(CC)C(=O)c1ccc(NC(=O)c2ccc(-c3nn(C)c(=O)c4ccccc34)cc2)cc1	-1.6
CCN1CC2(CCC1=O)CCN(C(=O)Nc1cccc(F)c1)CC2	-0.16
O=C(c1ccc(F)cc1)n1nc(-c2ccc(Cl)cc2)nc1NCc1ccco1	0.09
C=CCC(CC=C)(CNC(=O)C(=O)Nc1cc(C)ccc1OC)c1ccc(OC)c(OC)c1	1.33
O=C(c1ccccc1)N(Cc1ccco1)Cc1cccs1	-1.3
CC[N+](C)(C)c1cccc(O)c1	-0.77
CCOC(=O)C1(C)C=C(Nc2ccc(C(=O)O)cc2)C(=O)N1c1ccc(C(=O)O)cc1 (stereo not given)	-1.01
O=C1N(Cc2ccccc2)c2ccccc2C1(O)c1c[nH]c2ccccc12 (stereo not given)	-1.32
O=C(CN1CCOC1=O)NCc1ccc(N2CCCC2=O)cc1	-0.48
COc1ccc(CNS(=O)(=O)c2cc(Br)cc3c2N(C(C)=O)C(C)C3)cc1 (stereo not given)	2.17
CCOC(=O)c1ccc(N2C(=O)c3n[nH]c(-c4ccco4)c3C2c2ccc(OCC)cc2)cc1 (stereo not given)	-1.12
CC(C)[N+](C)(CCC(C(N)=O)(c1ccccc1)c1ccccc1)C(C)C	-1.4
CCCn1ncc(C(=O)N2CCCCC2CN2CCOCC2)c1C (stereo not given)	-0.27
COc1cc(CNCCSc2nnnn2C)ccc1OCc1ccccc1	-0.36
COc1ccc(-c2c(C)nn3c(C(F)(F)F)cc(-c4ccccc4)nc23)cc1	1.62
Cc1cccc(-c2nc3c4ccccc4nc(NCCc4ccccc4)n3n2)c1	0.89
COc1ccc(CCNC(=O)CCc2c(C)c3cc4c(C)c(C)oc4cc3oc2=O)cc1OC	-1.04
CCCCn1cc(S(=O)(=O)c2ccc(F)cc2)c(=O)c2ccccc21	-1.05
O=C(Nc1ccccc1CN1CCOCC1)C1CCN(Cc2ccco2)CC1	-1.29
CCOC(=O)c1ccc(NC(=O)CC2NCCNC2=O)cc1 (stereo not given)	-0.37
COC(=O)c1ccc2nc(C)cc(Nc3cccc(Cl)c3C)c2c1	-0.63
OC1(c2ccccc2)CCN(Cc2cnc(NCc3ccccc3)nc2)CC1	1.26
COc1cccc(SCC(=O)NCc2cc(=O)[nH]c(C)n2)c1	0.72
O=C(CSc1nc2c(oc3ccccc32)c(=O)n1Cc1ccco1)Nc1ccccc1	1.77
CC(=O)NC1CN(C(=O)c2[nH]c3c(C)ccc(C)c3c2C)CC1C(C)C (stereo not given)	2.44
Nc1nc(CNC(=O)c2ccccc2OCc2ccccc2)cs1	-1.45
O=C(NCCCCc1ccccc1)c1cc(-c2ccccc2O)n[nH]1	-0.07
CC(C)(C)c1ccc(C(=O)NC2(C(F)(F)F)C(=O)Nc3c2c(=O)[nH]c(=O)n3-c2ccccc2)cc1 (stereo not given)	-0.4
O=C(NCC(F)(F)F)c1ccc(-c2ncccc2C(=O)N2CCCC2)cc1	-1.36
Cc1c2cnn(CC(=O)NC(C)C)c(=O)c2c(C)n1Cc1ccccc1Cl	-1.57
CN(C(=O)c1cc2nc(-c3ccc4c(c3)OCO4)cc(C(F)(F)F)n2n1)c1ccc(OC(F)(F)F)cc1	0.62
Cn1c(=O)cc(OCC(=O)N2CCN(c3ccccc3)CC2)c2ccccc21	-1.59
O=C(Nc1ccc(Br)cc1F)N1CCC2(CC1)Oc1ccccc1C(=O)N2Cc1ccccc1F	-0.07
CN(Cc1ccc2nonc2c1)C(=O)COc1ccc(Cl)cc1Cl	-0.79
COc1cccc(C)c1C(=O)NC1COCC1Cc1ccncc1 (stereo not given)	0.55
COc1ccc(-c2c(C)nn3c4c(cnc23)C(=O)CC(c2ccc(C)cc2)C4)cc1 (stereo not given)	0.5
O=C(O)c1ccccc1C(=O)Nc1ccc(Br)c2cccnc12	-0.74
Cc1cc(Br)cc(C)c1OCC(=O)Nc1ccc(S(=O)(=O)Nc2ncccn2)cc1	-1.27
COc1ccc(NC(=O)c2cnc(Nc3ccc(C)c(Cl)c3)c3ccccc23)c(OC)c1	0.24
COc1ccc(S(=O)(=O)NCc2cccc(CO)c2)c2c1CCCC2	1.1
Cc1ccc(Cl)cc1N1CCN(CCNC(=O)Nc2ccccc2Cl)CC1	0
COc1ccc(Cl)cc1NC(=O)CN(C)S(=O)(=O)c1ccc(Br)s1	-0.39
Cc1nn(C)c(C)c1S(=O)(=O)N(CC(=O)N1CCN(c2ccccc2)CC1)c1ccc(C(C)C)cc1	-0.34
NC1=NC(c2cccc(Cl)c2)n2c(nc3ccccc32)N1 (stereo not given)	0.23
C#CCOc1ccc(C2C(C(=O)OC)=C(C)NC3=C2C(=O)c2ccccc23)cc1OCC (stereo not given)	3.72*
CCCC1(CNS(=O)(=O)c2sc3c(c2C(=O)O)CCNC3)CCC1	-0.61
Cc1cc(F)ccc1NS(=O)(=O)c1c(C)nc2scc(C)n2c1=O	-1.06
COC(=O)Cc1c(C)c2ccc3c(c2oc1=O)CN(Cc1ccccc1Cl)CO3	-0.59
CCc1nc(C)c(CNC(=O)C2CNCC(C(=O)N3CCCC3)C2)s1 (stereo not given)	0.63
O=C(Nc1ccc(F)cc1)c1oc2ccccc2c1NC(=O)C1CCCCC1	0.33
Cc1ccc2oc(-c3ccc(NC(=O)c4oc5ccc(Cl)cc5c4C)cc3)nc2c1	-0.39

# Going on with the list:
Compound	Bm FixLJ act
CC(NC(=O)c1cn(C)c2ccccc12)c1cn2ncsc2n1 (stereo not given)	-2.47
Cc1ccc(NC(=O)c2sc3nc(-c4ccc(F)cc4)ccc3c2N)cc1F	-2.59
CC(=O)OCC1=C(C(=O)O)N2C(=O)[C@@H](NC(=O)CSc3ccncc3)[C@H]2SC1	-0.87
CC(=O)N1CCCC(CNc2nc(N)c3cnn(C)c3n2)C1 (stereo not given)	0.65
CN(CC1COCCO1)C(=O)Nc1ccccc1Oc1ccccc1F (stereo not given)	-0.03
COc1cccc2c1C1(CCN(C(=O)c3cnc[nH]c3=O)CC1)OCC2	0.75
COc1ccc(C(=O)Nc2ccc(-c3cc4ccccc4oc3=O)c(C)c2)cc1Br	1.1
CCc1cccc2c(-c3ccccc3)nc(SCC(=O)Nc3ccc(OC)cc3)nc12	-1.41
COC(=O)C(NC(=O)CC(C)C)(Nc1nc2c(s1)CCCC2)C(F)(F)F (stereo not given)	-0.92
COc1cc(CNCCSc2nnnn2C)ccc1OCc1ccc(C)cc1	-1.34
CC(C)Cn1c(=O)c2ccccc2n2c(CCC(=O)NC(C)c3ccccc3)nnc12 (stereo not given)	-0.48
CCc1nnc(NC(=O)c2cc(=O)c3cc(C)c(C)cc3o2)s1	-2.23
COc1cccc(C(=O)N2CC3CCC(C2)N(CC2CCC2)C3=O)c1O (stereo not given)	0.82
CCc1ccc(NC(=O)CN2C(=O)c3cccc4cccc2c34)cc1	1.82
CN(Cc1nc(-c2cccnc2)no1)C(=O)C1=Cc2ccccc2OC=C1	-0.57
Cc1ccccc1NC(=O)NCCc1c[nH]c2ccccc12	-3.88
O=C(Nc1ccccc1N1CCOC1=O)N1Cc2cnn(CCO)c2C1	-0.28
NC(=O)c1ccc(OCCCN2CCCC(C(=O)N3CCOCC3)C2)cc1 (stereo not given)	-1.09
Cc1ccc(Cn2c(C)c3cnn(CC(=O)N4CCN(c5cc(C)ccc5C)CC4)c(=O)c3c2C)cc1	-0.12
Cc1cc(C)cc(NS(=O)(=O)c2ccc3[nH]cc(C(=O)NCc4ccco4)c(=O)c3c2)c1	-0.29
CC(Cn1cccn1)c1n[nH]c(COc2cccc(F)c2)n1 (stereo not given)	0.34
Cc1ccc(C)c(NC(=O)CCc2nc(-c3ccc(C(C)(C)C)cc3)no2)c1	0.97
O=C(O)c1ccc(Nc2nc3ccccc3n3cnnc23)cc1	-0.41
COC(=O)c1c(N)n(-c2ccc(OC)c(OC)c2)c2nc3ccccc3nc12	-1.13
CC1CCN(S(=O)(=O)c2ccc3c(c2)c(=O)c(C(=O)NC(C)c2ccccc2)cn3C)CC1 (stereo not given)	-1.2
CCOC(=O)c1ccc(NC(=O)CSc2nccn2-c2ccc(OCC)cc2)cc1	-0.32
O=C1c2[nH]nc(-c3ccccc3O)c2C(c2cccc(Br)c2)N1Cc1ccncc1 (stereo not given)	-0.75
COc1ccc(C2CC(=O)N(CC(=O)Nc3cccc(C)c3C)c3ccccc3S2)cc1OC (stereo not given)	-1.69
COc1cncc(C(NC(=O)CNC(=O)N(C)C)C2CC(O)C2)c1 (stereo not given)	-1.42
O=C(Nc1cc(-c2nc3cc(Cl)ccc3o2)ccc1Cl)c1cc([N+](=O)[O-])ccc1N1CCOCC1	-2.41
COc1ccc(CN2C(=O)N(c3ccc(F)cc3)C(=O)C2CC(=O)Nc2ccccc2)cc1 (stereo not given)	-1.67
CCCn1ncc(CN2CC3CCC(C2)N(Cc2cscn2)C3=O)c1C (stereo not given)	-1.33
O=C(CN1CCCCC1=O)NC1COCCC1OCc1ccccc1 (stereo not given)	-1.66
COCCNS(=O)(=O)c1cc(-c2nn3c(C)nnc3c3ccccc23)ccc1C	-1.34
Cn1c(=O)c2c(nc(N3CCOCC3)n2Cc2ccccc2)n(C)c1=O	-1.37
COc1ccc(NC(=O)CSc2nc(-c3ccc(OC)c(OC)c3)[nH]c2-c2ccc(C)cc2)cc1	0.58
COc1cc(NC(=O)c2nc3ccccc3n(C)c2=O)cc(OC)c1OC	-1.76
COc1cc(NC(=O)NCCCN2CCNC(=O)C2)ccc1F	-1.4
Cc1ccnc(N2CCC3(CC2)OCCc2sc(C(=O)NC4CC4)cc23)n1	-0.77
COCC(c1ccccn1)N(C)CCC(=O)Nc1nccs1 (stereo not given)	0.83
O=S(=O)(c1ccc(Cl)cc1)c1nc(-c2cccc(Br)c2)oc1NCc1ccccc1	0.18
CCn1c(CN(C)C)nnc1C1CCN(c2ncnc(C)c2C)CC1	-0.03
CCOc1ccc(Br)cc1C1C(C(=O)OC)=C(C)NC2=C1C(=O)c1ccccc12 (stereo not given)	0.22
COc1cccc(C2C(C(=O)Nc3ccccc3OC)=C(C)Nc3nc(-c4ccco4)nn32)c1 (stereo not given)	-1.59
COc1cc(NC(=O)c2ccccc2)ccc1NC(=O)c1cc2ccccc2o1	-0.87
CCOC(=O)c1c(-c2ccccc2)oc2ccc(N(C(C)=O)S(=O)(=O)c3ccc(CC)cc3)cc12	-0.4
COc1ccccc1CNC(=O)CNC(C)c1nncn1C (stereo not given)	0.09
CCC(=O)Nc1ccc(C)c(NC(=O)c2ccn(C(F)F)n2)c1	0.2

# 5 structures from above, ordered by formula weight, smallest number first:
Compound	Bm FixLJ act
COc1ccccc1CNC(=O)CNC(C)c1nncn1C (stereo not given)	0.09
COCC(c1ccccn1)N(C)CCC(=O)Nc1nccs1 (stereo not given)	0.83
CCC(=O)Nc1ccc(C)c(NC(=O)c2ccn(C(F)F)n2)c1	0.2
Cc1ccnc(N2CCC3(CC2)OCCc2sc(C(=O)NC4CC4)cc23)n1	-0.77
O=S(=O)(c1ccc(Cl)cc1)c1nc(-c2cccc(Br)c2)oc1NCc1ccccc1	0.18

# Next part.
Compound	Bm FixLJ act
COCC(=O)N1CCc2[nH]cnc2C12CCN(C(=O)CCc1ccncc1)CC2	-1.08
COc1ccc(C)cc1NC(=O)c1ccc(NS(=O)(=O)c2c(C)noc2C)cc1	-0.27
Cc1ccc(NC(=O)Cn2cc(C(=O)c3ccco3)c3ccccc32)cc1C	-0.07
Cc1ccc(O)c(NC(=O)CCS(=O)(=O)c2nc(-c3cccs3)cc(C(F)(F)F)n2)c1	-2.89
COc1ccc2c(c1)CCc1c(C(=O)Nc3c(C)nn(Cc4ccccc4)c3C)noc1-2	-1.48
O=C(Cc1ccc(F)cc1)N1CCC(c2nc3c(nnn3Cc3ccc(Cl)cc3)c(=O)[nH]2)CC1	-2.44
CCOc1ccc(C2C=C(c3cccc(OC)c3)Nc3nnnn32)cc1 (stereo not given)	-2.36
COC(=O)c1c(NC(=O)COc2ccc(C(C)C)cc2)sc2c1CCCC2	-2.27
CC1CCCN(c2nc(-c3ccccc3O)nc3ccccc23)C1 (stereo not given)	0.29
Cn1cc(C(NC(=O)c2cc(F)ccc2F)C2CC(O)C2)cn1 (stereo not given)	-1.81
Cc1nc(-c2cccc(C(=O)N3CCCCCCC3)c2)n(C)n1	1.03
COc1ccccc1N1CCN(C(=O)c2cc3c(=O)oc4ccccc4c3s2)CC1	1.13
CCc1ccc(CNC(=O)C2CCN(c3nnc(-n4c(C)ccc4C)s3)CC2)cc1	-0.4
